RGS16-Gao HTS – regulators of human RGS16-Galphao interaction | bead-based flow cytometry RGS16-Galphao binding, fluorescence; actives lie on both sides | binding response (% of control), % at 10 µM | 220,000 compounds, 0.38% hits;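 active = below 25% or above 175%, edge rows of some plates excepted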;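 also: Galphao activated by GDP with aluminum fluoride before binding; 100% = wells without compound and 0% = beads without RGS; some results beyond the cut were filed as inactive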
Target sequence (O15492 whole entry, looked up): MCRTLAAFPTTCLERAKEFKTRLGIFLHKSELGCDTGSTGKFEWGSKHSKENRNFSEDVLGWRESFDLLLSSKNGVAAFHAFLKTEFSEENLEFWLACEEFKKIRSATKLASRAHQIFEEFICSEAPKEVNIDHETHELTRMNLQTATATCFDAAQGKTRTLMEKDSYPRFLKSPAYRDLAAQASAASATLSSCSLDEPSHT
Target sequence (P09471 whole entry, looked up): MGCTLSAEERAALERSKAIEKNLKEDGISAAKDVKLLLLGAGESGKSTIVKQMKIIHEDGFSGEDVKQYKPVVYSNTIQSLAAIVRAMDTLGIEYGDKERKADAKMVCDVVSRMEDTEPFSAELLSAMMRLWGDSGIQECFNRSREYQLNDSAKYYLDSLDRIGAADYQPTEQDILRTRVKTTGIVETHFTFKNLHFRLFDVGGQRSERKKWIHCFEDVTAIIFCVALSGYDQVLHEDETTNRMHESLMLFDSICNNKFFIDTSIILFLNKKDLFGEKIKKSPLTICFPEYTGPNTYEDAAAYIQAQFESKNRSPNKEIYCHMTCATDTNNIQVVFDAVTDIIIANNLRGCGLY
PKD1 kinase inh – inhibitors of human PKD1 kinase | PKD1 kinase fluorescence polarization assay | inhibition, %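 (about 10 µM by stock and volumes)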 | 200,000 compounds, 0.056% hits | Q15139;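 active = inhibition of 50% or more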;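 also: controls were vehicle for no effect and a reference inhibitor for full effect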
HSV replic up – increases HSV replication in cells; AID 1956; HSV replication augmentation in cells, fold increase; 220,000 compounds, 0.005% hits; maximum fold increase;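 active = peak rise of 1.5-fold or more in the series; tested in PC3 cells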;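 also: first round at 10 µM; read as green reporter fluorescence; hits show the peak of a series up to 25 µM; 1 = signal of infected wells without compound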
GALR2 ag – activates the human galanin receptor 2. O43603. GALR2-expressing cells, agonist activation read-out. activation, %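 (tested at 5 µM)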. 140,000 compounds, 0.48% hits. AID 803;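 active = above mean plus 3 SD of all compounds, about 5% in these data, not always enough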;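 also: 0% = vehicle buffer wells and 100% = reference agonist at full effect; tested in CHO reporter cells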
Target sequence (O43603 whole entry, looked up): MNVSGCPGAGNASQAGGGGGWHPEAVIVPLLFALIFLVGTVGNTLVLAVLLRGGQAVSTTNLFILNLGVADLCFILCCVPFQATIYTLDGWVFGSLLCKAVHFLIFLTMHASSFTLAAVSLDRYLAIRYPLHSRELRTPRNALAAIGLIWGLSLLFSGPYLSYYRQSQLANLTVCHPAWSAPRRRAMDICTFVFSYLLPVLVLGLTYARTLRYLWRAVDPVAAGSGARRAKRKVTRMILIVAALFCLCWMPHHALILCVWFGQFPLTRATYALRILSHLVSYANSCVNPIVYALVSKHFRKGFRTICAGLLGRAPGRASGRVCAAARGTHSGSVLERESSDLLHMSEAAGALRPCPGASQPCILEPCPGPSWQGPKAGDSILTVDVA
INS promoter inh – TRM-6 insulin promoter activity inhibition; TRM-6 cells (human fetal islet line), insulin promoter-eGFP reporter, imaging; reporter expression induced with tamoxifen; AID 1273; 130,000 compounds, 0.9% hits; inhibition, % at 2 µM;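 active = inhibition above the mean plus 3 SD, with well images judged a real hit on visual review, cut at about 60% in these data, passing the limit was not always enough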
INS promoter inh cell count – also measured in INS promoter inh; calls as there; normalized cell count, %; measured here: cell count, toxicity; reference of the scale not given here;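 cells exposed to compound for 48 h; stained nuclei by imaging scaled within each plate; lower means fewer cells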
HSV replic up primary fold – also measured in HSV replic up; calls as there; fold increase; compound at 10 µM; measured here: primary screen fold increase 10 uM; tested in PC3 cells;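 GFP signal in the first replicate; 1 = infected wells without compound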
* = called active by the depositor; i = inactive; / = not tested or not shown.

SMILES	RGS16-Gao HTS	PKD1 kinase inh	HSV replic up	HSV replic up primary fold	GALR2 ag	INS promoter inh	INS promoter inh cell count
CC(C)n1nnnc1C(c1ccc(F)cc1)N1CCN(C2CCCC2)CC1 (configuration not stated)	107	-1	i	0.9	-1.4	/	/
CCOc1ccc(/C(O)=C2\C(=O)C(=O)N(c3cc(C)on3)C2c2ccccc2OC)cc1 (configuration not stated)	162	-1	i	1	-0.1	/	/
CS(=O)(=O)c1ccccc1C(=O)Nc1nc2ccccc2[nH]1	102	/	i	0.88	/	/	/
COc1ccccc1C(=O)COC(=O)c1ccccc1O	98	-10	i	0.66	/	/	/
CN(C)S(=O)(=O)c1cccc(NC(=O)COC(=O)c2cc3ccccc3oc2=O)c1	99	/	i	1.1	/	/	/
COc1cnn(-c2ccc(F)cc2)c(=O)c1Br	103	-8	i	0.94	/	-44	93
CCOc1ccc(CSC(CC(=O)O)C(=O)O)cc1 (configuration not stated)	104	-25	i	0.92	-2.4	33	108
COc1cc(-c2cc(=O)c3c(O)c(OC)c(OC)cc3o2)cc(OC)c1O	100	/	i	0.95	/	/	/
O=C(CSc1nnc(COc2ccccc2)o1)N1CCN(c2ccccc2)CC1	88	1	i	0.93	-2.6	-56	92
COCCN(CCOC)c1cc(C)c(C#N)c2nc3ccccc3n12	100	2	i	0.89	2.0	-5	83
COc1ccc(NC(=S)N(CCCN2CCOCC2)C(C)c2cc3ccccc3o2)cc1 (configuration not stated)	103	-9	i	0.72	/	33	129
CCc1ccc(NC(=O)C2(c3ccccc3)CC2(Cl)Cl)cc1 (configuration not stated)	98	-12	i	0.72	-1.8	-220	113
OC(COc1ccc2ccccc2c1)CN1CCOCC1 (configuration not stated)	98	-9	i	1	-3.7	52	119
Cc1ccc(Nc2ncnc(-n3cccc3)n2)cc1Cl	79	/	i	0.95	/	/	/
COc1ccc(OC)c(NC(=O)/C=C/c2ccccc2[N+](=O)[O-])c1	112	3	i	0.9	-0.6	11	149
COCc1ccccc1Cn1cnc2c1c(=O)n(C)c(=O)n2C	95	-9	i	0.91	-1.2	-8	172
CCOC(=O)c1ccc(Nc2nc(-c3cccnc3)nc3ccccc23)cc1	98	11	i	0.75	-0.1	23	103
COC(=O)C1=C(C)N(c2ccccc2)C(=S)NC1c1ccccc1C(F)(F)F (configuration not stated)	99	-10	i	0.97	/	9	163
COc1cc(C(=O)Nc2ccc(C(C)=O)cc2)c(Br)c(OC)c1OC	105	1	/	/	-1.4	-25	75
CCc1ccc(NC(=O)Cn2c(=O)n(CCCC(=O)NCc3ccco3)c(=O)c3ccccc32)cc1	96	-6	i	0.88	2.3	47	56
CCOC(=O)c1ccc(NCC(O)COc2ccccc2)cc1 (configuration not stated)	104	2	i	0.99	0.0	-52	66
O=C(NN1C(=O)c2ccc3c4c(ccc(c24)C1=O)CC3)c1ccc(Br)cc1	95	-11	i	0.88	-2.9	61	101
COc1ccc(C2C(C(=O)c3ccco3)=C(O)C(=O)N2CCc2ccccc2)cc1OC (configuration not stated)	105	-3	i	0.94	-3.8	/	/
COc1ccc(OC)c(CNC(=O)CCc2nc(-c3cccs3)no2)c1	103	7	/	/	-0.9	-25	89
COc1ccc(CCNC(=O)c2n[nH]c3ccccc23)cc1	95	7	i	1	/	/	/
Cc1cc(OCC(=O)NCc2ccccn2)cc(C)c1Br	102	-12	i	0.89	-1.7	35	72
COc1ccccc1N(CC(=O)NC1CCCC1)C(=O)c1oc(C(C)(C)C)cc1C	100	-11	i	0.98	/	/	/
O=C(NCCCN1CCCCC1)c1ccc2c(c1)NC(=O)C(N1CCOCC1)S2 (configuration not stated)	98	-1	i	0.94	-4.0	23	185
Cc1sc2ncn(CC(=O)NCC(=O)N(C)C3CCCCC3)c(=O)c2c1C	105	0	i	0.9	-2.1	/	/
O=c1ccn(Cc2ccccc2)c2ccccc12	101	/	i	0.84	/	/	/

Some of these compounds in order of molar mass, smallest number first:
SMILES	RGS16-Gao HTS	PKD1 kinase inh	HSV replic up	HSV replic up primary fold	GALR2 ag	INS promoter inh	INS promoter inh cell count
COc1ccc(CCNC(=O)c2n[nH]c3ccccc23)cc1	95	7	i	1	/	/	/
COCc1ccccc1Cn1cnc2c1c(=O)n(C)c(=O)n2C	95	-9	i	0.91	-1.2	-8	172
CCOC(=O)c1ccc(NCC(O)COc2ccccc2)cc1 (configuration not stated)	104	2	i	0.99	0.0	-52	66
COc1ccc(OC)c(NC(=O)/C=C/c2ccccc2[N+](=O)[O-])c1	112	3	i	0.9	-0.6	11	149
Cc1cc(OCC(=O)NCc2ccccn2)cc(C)c1Br	102	-12	i	0.89	-1.7	35	72
CCOC(=O)c1ccc(Nc2nc(-c3cccnc3)nc3ccccc23)cc1	98	11	i	0.75	-0.1	23	103
COc1ccc(OC)c(CNC(=O)CCc2nc(-c3cccs3)no2)c1	103	7	/	/	-0.9	-25	89
Cc1sc2ncn(CC(=O)NCC(=O)N(C)C3CCCCC3)c(=O)c2c1C	105	0	i	0.9	-2.1	/	/
COC(=O)C1=C(C)N(c2ccccc2)C(=S)NC1c1ccccc1C(F)(F)F (configuration not stated)	99	-10	i	0.97	/	9	163
COc1ccccc1N(CC(=O)NC1CCCC1)C(=O)c1oc(C(C)(C)C)cc1C	100	-11	i	0.98	/	/	/
O=C(NCCCN1CCCCC1)c1ccc2c(c1)NC(=O)C(N1CCOCC1)S2 (configuration not stated)	98	-1	i	0.94	-4.0	23	185
COc1ccc(C2C(C(=O)c3ccco3)=C(O)C(=O)N2CCc2ccccc2)cc1OC (configuration not stated)	105	-3	i	0.94	-3.8	/	/
CCc1ccc(NC(=O)Cn2c(=O)n(CCCC(=O)NCc3ccco3)c(=O)c3ccccc32)cc1	96	-6	i	0.88	2.3	47	56

Next section:
SMILES	RGS16-Gao HTS	PKD1 kinase inh	HSV replic up	HSV replic up primary fold	GALR2 ag	INS promoter inh	INS promoter inh cell count
O=c1c2cc(Cl)ccc2[nH]c(=S)n1Cc1ccco1	99	-9	i	0.89	-0.6	52	90
CCOc1cccc(=O)c2c(C)n(CC(=O)c3ccccc3)c(C)c12	99	7	i	1.3	/	/	/
O=C(NCc1ccco1)c1cccc(S(=O)(=O)N2CCCCC2)c1	96	-4	i	0.96	-0.5	25	167
Cc1[nH]nc(SCC(=O)N2CCCC2)c1[N+](=O)[O-]	105	-2	i	1	/	/	/
CCC(=O)Nc1cc2[nH]c(=O)cc(C)c2cc1C	101	4	i	1.1	/	/	/
CCCc1nc2sc3c(c2c(=O)n1NC(=O)c1ccco1)CC(C)(C)OC3	102	-1	i	1	-1.3	-67	76
COC(=O)c1nn(-c2ccc(-c3ccccc3)cc2)cc1O	103	-13	i	0.93	0.6	31	113
O=C(OCC(=O)N1CCc2ccccc21)c1cncc(Br)c1	100	1	i	0.97	/	/	/
Nc1cccc(C(=O)N/N=C/c2ccsc2)c1	101	4	i	0.96	/	/	/
COc1cc([N+](=O)[O-])cc2cc(C(=O)N3CCN=C3c3ccccc3)c(=O)oc12	102	-7	i	0.96	/	8	113
O=[N+]([O-])c1ccc(Cl)c(-c2ccc(/C=N/c3c(-c4ccco4)nc4ccccn34)o2)c1	97	-6	/	/	-2.5	12	125
CC(Oc1ccc(-c2ccccc2)c(F)c1)c1ccn(S(=O)(=O)c2cccc3ccccc23)n1 (configuration not stated)	119	9	/	/	-1.7	-36	100
O=C(NCC1CCCO1)c1ccccc1 (configuration not stated)	108	6	i	1	-3.4	3	160
Cc1cc(C)nc(SCc2nnc(SCC(=O)Nc3ncc(C)s3)n2Cc2ccco2)n1	100	0	i	1.1	-0.8	53	53
N#Cc1ccsc1NC(=O)COC(=O)c1ccc(NC(N)=O)cc1	102	-1	i	1	/	/	/
COc1ccc(C(=O)OC(C)CN2CCOCC2)cc1OC (configuration not stated)	105	-5	i	0.89	-1.0	/	/
Cc1occc1-c1nnc(SCCCC(=O)c2ccc(F)cc2)n1C	93	13	i	0.96	-1.1	-4	103
COc1cc(NC(=S)NCc2cccnc2)cc(OC)c1OC	97	7	i	0.92	/	/	/
CCCSc1nnc(Nc2ccccc2C)s1	104	3	i	0.94	0.2	0	120
O=C(NC(=S)Nc1nc2c(ccc3ccccc32)s1)c1cccs1	107	-10	i	1.1	0.2	8	108
Fc1ccc(C2CCCN2Cc2nc(CC3CC3)no2)cc1 (configuration not stated)	106	-1	i	0.85	/	/	/
Cc1cc(C(=O)NCCC(C)C)c2ccccc2n1	101	/	i	0.92	/	/	/
O=C(c1cc2ccccc2oc1=O)N(Cc1ccccc1)Cc1ccc2c(c1)OCO2	98	-2	i	0.89	-1.1	68	128
CO/N=C(\CCC(=O)O)c1cccs1	102	/	i	0.99	/	/	/
O=C(CSc1c(Cl)cccc1Cl)NC1CCCc2ccccc21 (configuration not stated)	107	0	i	1	-1.6	/	/
COC(=O)Nc1nc(Sc2ncc(C(F)(F)F)cc2Cl)n[nH]1	97	-5	i	0.97	-0.5	/	/
Cc1cc(C)nc(N(C#N)CC(=O)c2ccccc2)n1	84	3	i	0.8	-0.8	19	111
CC(=O)N1CCN(C(=S)NCCc2ccccc2)CC1	101	4	i	0.88	-0.8	0	78
O=C(CCNc1n[nH]c(=O)[nH]c1=O)N/N=C/c1ccccc1Br	98	0	i	0.97	/	/	/
Nc1nnc(CC(=O)N/N=C/c2cccc(OCCOc3ccccc3)c2)s1	i	3	i	0.87	-1.3	34	43
O=C(Cc1cccs1)Nc1nnc(Cc2ccc(F)cc2)s1	56	-7	/	/	-2.2	-3	88
O=C(COC(=O)CCS(=O)(=O)c1ccc(Cl)cc1)NCCc1ccc(Cl)cc1Cl	103	-12	i	1	-0.1	40	156
O=C(Nc1ccc2c(c1)OCO2)C1CCCCN1S(=O)(=O)c1ccc(F)cc1 (configuration not stated)	100	0	i	0.88	-2.4	/	/
CC(=O)Nc1cc(C(=O)N2CCN(C)CC2)ccc1S(=O)(=O)c1ccc(C)cc1	101	2	i	0.93	-1.9	-33	49
CO/N=C(\C(=O)O)c1csc(NN=C(C)C)n1	25	0	i	1	/	-33	82
O=C(NC1CCCCC1)NC1CC2CCC(C1)N2C(=O)NC1CCCCC1 (configuration not stated)	86	-3	i	1	-0.9	-6	124
CC1CCCN(CCCCOc2cccc(Br)c2)C1 (configuration not stated)	107	-13	i	0.73	0.2	20	174
CCOc1ccccc1NC(=O)c1cccnc1	/	6	i	1.1	0.5	0	105
COc1ccc(CCC(=O)N2CCCSC2=Nc2ccc(C(C)=O)cc2)cc1	104	-4	i	1	-0.9	/	/
Cc1cccc(NS(=O)(=O)c2cc(OCC(N)=O)c(C)cc2Cl)c1	84	-12	i	1	-1.1	43	113
CCc1ccc(NC(=O)CSc2nc3ccccc3c(=O)n2CCN2CCOCC2)cc1	98	2	i	0.79	-0.4	/	/
CC(=O)Oc1ccc(C)cc1-n1nc2ccccc2n1	101	-8	i	0.91	-1.0	6	175
Nc1ccccc1Nc1ccncc1[N+](=O)[O-]	100	1	i	0.72	-1.0	26	81
O=C(Nc1cc(=O)[nH]c2nc(-c3ccccc3)nn12)c1ccc(Cl)cc1	95	/	i	1.1	/	/	/
CCn1c(COc2ccc3c(c2)CCCC3)nnc1SCC(=O)Nc1ccc(C(=O)OC)cc1	104	-6	i	1.1	0.1	/	/
CCOc1cc(/C=N/n2cnnc2)ccc1OCC(=O)Nc1ccccc1OC	100	14	i	0.94	0.3	/	/
CC1CCC(NC(=O)C2CCC(CNc3c(N4CCCCC4)c(=O)c3=O)CC2)CC1 (configuration not stated)	97	/	i	0.83	/	/	/
CCc1ccc(N2C(=O)c3sc4nnc(C)c(=O)n4c3C2=O)cc1	136	9	i	0.58	-0.3	/	/
CCOc1ccc(NC(=O)Nc2cc(-c3ccccc3)sc2C(=O)OC)cc1	106	-5	i	1	-0.9	/	/
Cc1ccsc1/C=N/n1cnnc1	97	/	i	0.91	/	/	/
CCN(c1ccccc1)S(=O)(=O)c1ccc(Cl)c(NC(=O)CSc2nncn2C)c1	130	-5	i	1.2	0.9	/	/
CC[N+]1(CC(O)COC2CC(C)CC(C)(C)C2)CCOCC1 (configuration not stated)	116	/	i	1.1	/	/	/
Cc1ccc(NC(=O)N(Cc2cc3cc(C)cc(C)c3[nH]c2=O)CC2COCCO2)cc1 (configuration not stated)	46	5	i	0.96	-1.3	45	121
O=C(OCc1ccc(F)cc1)c1ccc2c(c1)-c1ccccc1C2=O	108	-18	i	0.98	-1.9	-21	62

Source: PubChem
